HPGD inh = qHTS Assay for Inhibitors of HPGD (15-Hydroxyprostaglandin Dehydrogenase). AID 894, 2007. Potency, µM, for the others: at the highest dose activity change, negative = inhibition, usual class: inhibitors. 150,000 compounds, 4.3% hits. purified HPGD, NADH fluorescence kinetic, PGE2 substrate; active = well fitted inhibition curve with a large enough effect (not every such curve was filed as active); inconclusive = small, poorly fitted or top-dose-only effect, or another doubt; inactive = no such curve, though single readings can be large or run the other way;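 also: top concentration of the series not given in the record; plate controls included wells without enzyme; inactives centre near -10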
Target sequence (P15428 whole entry, looked up): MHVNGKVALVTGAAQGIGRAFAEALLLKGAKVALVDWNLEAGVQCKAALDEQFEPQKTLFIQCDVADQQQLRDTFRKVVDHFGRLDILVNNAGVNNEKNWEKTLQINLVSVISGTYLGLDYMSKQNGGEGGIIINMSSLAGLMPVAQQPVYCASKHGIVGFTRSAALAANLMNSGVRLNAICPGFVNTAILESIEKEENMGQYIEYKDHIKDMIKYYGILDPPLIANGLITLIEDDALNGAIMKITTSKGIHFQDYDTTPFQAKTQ
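20 nM HPGD preincubated 15 min at room temperature with compound in 50 mM Tris-HCl pH 8, 0.01% Tween 20. Started with 1 mM NAD+ and 30 uM prostaglandin E2; NADH fluorescence (360/450 nm) read 5 times over 30-s intervals, last minus first.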
Active calls of the source: *; ? = inconclusive. % is scaled to controls: 0 for no effect and ±100 for the full control effect; potency is read from the fitted curve at half-maximal effect.

HPGD inh | SMILES
-3.6% | CS(=O)(=O)N(CCc1ccccc1)CC(=O)N1CCCCC1
-9.7% | O=C(Nc1cc2c(cc1Cl)OCCCO2)c1ccco1
-7.7% | Cc1cc(C)c(S(=O)(=O)Nc2ccccc2-c2ccccc2)c(C)c1
? | O=C(c1cc(-c2ccc(Cl)cc2Cl)on1)N1CCOCC1
-12.4% | Cc1cc(C(F)(F)F)nc(Nc2nc(C)c3ccccc3n2)n1
-20.9% | N#CCSc1nc2ccccc2c2nc3ccccc3n12
-2.0% | CC(C)CC(NC(=O)C(CC(C)C)NC(=O)OC(C)(C)C)C(=O)O (configuration not stated)
-7.8% | CC1Cc2ccccc2N1S(=O)(=O)c1cnc[nH]1 (configuration not stated)
-8.3% | Cc1nn(C(CC(=O)O)C(=O)O)c(C)c1Br (configuration not stated)
-4.5% | O=C(N/N=C/c1cccs1)[C@H]1C[C@@H]1c1ccccc1

Remaining list, next part.
HPGD inh | SMILES
-18.1% | O=C(Nc1ccc2c(c1)OCCO2)C1CCCN(S(=O)(=O)c2cccc3nsnc23)C1 (configuration not stated)
-22.7% | CCCCN1C(=O)c2ccc(C(=O)Nc3ccc(C)c(S(=O)(=O)N(C)C)c3)cc2C1=O
-5.3% | CC(C)(C)c1ccc(C(=O)NC(=S)Nc2ccc(N3CCOCC3)cc2)cc1
? | c1ccc(-c2cc(-c3nc4ccccc4[nH]3)c3ccccc3n2)cc1
-0.5% | C=C(C)C(=O)OCC(C)C
-1.7% | O=C(Nc1ccccc1Cl)C1CCCN(S(=O)(=O)c2ccc(F)cc2)C1 (configuration not stated)
? | Cc1cc2cc(CN3C(=O)c4ccccc4C3=O)ccc2[nH]1
-3.6% | CC(=O)c1c(C)n(-c2ccccc2)c2ccc(OCC(O)CN3CCOCC3)cc12 (configuration not stated)
-11.2% | Cc1cc(C)nc(NN=C(c2ccccc2)c2ccccc2)n1
3.16µM* | ClC(Cl)(c1nnnn1-c1ccccc1)c1nnnn1-c1ccccc1

(cont.)
HPGD inh | SMILES
-9.2% | COC(=O)c1cc(NC(=O)CCc2c(C)nc3ncnn3c2C)cc(C(=O)OC)c1
? | Cc1nc(N)sc1C(=O)N/N=C/c1c[nH]c2ccccc12
-3.8% | CCOC(=O)c1ccccc1NC(=O)c1cc(S(=O)(=O)N2CCOCC2)ccc1F
-14.9% | CCOc1ccc(-c2cc(CCCC(=O)NCCCOC)no2)cc1
-8.9% | Cc1ccccc1NCN1C(=O)C2C3C=CC(C3)C2C1=O (configuration not stated)
-28.7% | O=C1c2ccccc2C(O)N1Cc1ccccc1 (configuration not stated)
-14.4% | CCOC(=O)C(NCc1ccco1)(NC(=O)c1ccccc1)C(F)(F)F (configuration not stated)
-18.4% | CN(CC(=O)N1CC=C(c2ccccc2)CC1)S(=O)(=O)c1ccc2c(c1)c(=O)n(C)c(=O)n2C
-3.1% | COc1ccccc1NC(CC(=O)c1ccccc1)C(=O)OCC(=O)c1ccc(F)cc1 (configuration not stated)
-9.0% | COc1ccc(CCN(Cc2nc3ccccc3c(=O)[nH]2)C(=O)c2ccco2)cc1

Following part:
HPGD inh | SMILES
-10.7% | Cc1ccc2nc(C)cc(Nc3ccc4c(c3)OCCO4)c2c1
-5.4% | Cc1nn(-c2ccccc2)c(C)c1/C=N\N1CCN(c2ccc(Cl)cc2)CC1
-8.3% | O=C1/C(=C/c2ccc3c(c2)OCO3)CCC/C1=C\c1ccc2c(c1)OCO2
? | O=C(Nc1ccc2cn[nH]c2c1)c1ccccc1F
-5.4% | CCOC(=O)C1=C(c2ccccc2)N=C2SCC(=O)N2C1c1ccc(O)c(OC)c1 (configuration not stated)
-14.3% | CCOC(=O)C1CCN(C(=O)COc2ccc(S(=O)(=O)NC(C)C)cc2Cl)CC1
-7.1% | COC(=O)CCC(=O)OC1(C)C(=O)C=C2C=C(C3CC3)N(CCc3ccccn3)C=C2C1=O (configuration not stated)
-2.2% | CC1CC(C)CN(CCCNC(=O)c2ccc(CS(=O)(=O)Cc3ccccc3F)o2)C1 (configuration not stated)
-16.1% | O=C1CCCC2=C1C(c1cccs1)Nc1ccccc1N2 (configuration not stated)
-12.8% | CCOc1ccc(-n2c(-c3ccccc3)nnc2-c2ccccc2)cc1

(listing goes on)
HPGD inh | SMILES
-11.4% | CCCCn1c(SCC(=O)O)nc2ccccc21
-9.7% | COCCCN1CN(S(=O)(=O)c2ccc(Cl)cc2)c2nc3ccccc3nc21
-10.0% | C=CCN(C(=O)Cn1nnc2ccccc21)C(C(=O)NCCOC)c1ccc(OC)cc1OC (configuration not stated)
-6.9% | O=C(COC(=O)CCC(=O)c1cccs1)Nc1cc(S(=O)(=O)N2CCOCC2)ccc1Cl
-10.8% | CCOc1ccc(CN(C)CC(=O)c2c(N)n(Cc3ccccc3)c(=O)n(CC)c2=O)cc1OC
? | COc1cc(C(=S)N2CCCC2)ccc1OC(=O)c1ccc(Cl)cc1[N+](=O)[O-]
-8.1% | Cc1cccc(NC(=S)NNC(=O)c2csc3c2CCC(C)C3)c1 (configuration not stated)
-0.8% | O=C(O)c1ccc(/C=N\N=C2c3ccccc3-c3ccccc32)cc1
? | CCn1c(=O)[nH]c(=O)c2c(N)c(C(=O)c3ccccc3OC)sc21
2.4% | CCOC(=O)C1(CC/C(C)=N\NC(N)=O)CC(C)(C)OC1=O (configuration not stated)

Rewritten as labelled records: entries from further up
Structure: O=C1c2ccccc2C(O)N1Cc1ccccc1 (configuration not stated)
  HPGD inh: -28.7%
Structure: CC(C)CC(NC(=O)C(CC(C)C)NC(=O)OC(C)(C)C)C(=O)O (configuration not stated)
  HPGD inh: -2.0%
Structure: Cc1nn(-c2ccccc2)c(C)c1/C=N\N1CCN(c2ccc(Cl)cc2)CC1
  HPGD inh: -5.4%
Structure: Cc1cc(C)nc(NN=C(c2ccccc2)c2ccccc2)n1
  HPGD inh: -11.2%

Next section
HPGD inh | SMILES
-13.0% | O=C1c2cccc3cccc(c23)C(=O)N1CCN1CCN(C(=S)Nc2ccccc2)CC1
-0.2% | Cc1cc(O)c(C2(C(F)(F)F)NCCNC2=O)cc1C (configuration not stated)
-20.7% | CCCCONc1ncnc2nonc12
-0.7% | COc1ccc(CCNC(=O)CN(c2ccccc2OC)S(C)(=O)=O)cc1
-9.4% | CCCCNCc1cccn1-c1ccccc1
-4.4% | Cc1ccc(C(=O)Cc2nnc(C)s2)cc1
-8.7% | COc1cccc(Cn2cccc(NC(=O)NC3CCCCC3)c2=O)c1
-9.2% | COc1ccc(NC(=O)CSc2n[nH]c(N)n2)c([N+](=O)[O-])c1
-21.9% | Nc1ccc(CCNc2ncnc3c2ncn3C2OC(CO)C(O)C2O)cc1 (configuration not stated)
-2.8% | CCC(=O)N1CCc2cc(S(=O)(=O)NCCC(=O)N3CC=C(c4ccccc4)CC3)ccc21

Carrying on:
HPGD inh | SMILES
-3.4% | O=c1cc(CO)oc(CN2CCN(c3ccccc3F)CC2)c1O
-6.0% | CC(=O)N1CCc2cc(S(=O)(=O)NC(Cc3ccccc3)C(=O)NC3CCCCCC3)ccc21 (configuration not stated)
-5.1% | CCCN(CCC)CCCOC(=O)c1ccc(Cl)cc1Cl
-4.5% | CC1CN(C(=O)C2(C)CC2(Br)Br)CC(C)O1 (configuration not stated)
-18.0% | CCCNS(=O)(=O)c1ccc(C(=O)NCC2CCCO2)cc1 (configuration not stated)
-2.8% | COc1ccc(-c2nc(-c3ccccc3)nc(N3CCN(C)CC3)c2C#N)cc1
-10.3% | COc1ccccc1CNc1nc2ccccc2n1CCN1CCCCC1
-8.0% | COc1cccc(C2NC(=O)NC(C)=C2C(=O)Nc2ccc(C)cc2)c1OC (configuration not stated)
-5.7% | O=C(Nc1ccc(N2CCN(C(=O)c3ccccc3)CC2)cc1)c1ccc(Br)o1
12.6µM* | CC(=O)c1cccc(NC(=O)Nc2ccc(C(=O)N3CCOCC3)cc2)c1

More compounds
HPGD inh | SMILES
1.3% | NC(=O)C1(N2CCCCC2)CCN(C(=O)c2ccccc2)CC1
-9.0% | CCOC(=O)c1c(NC(=O)CN2CCCc3ccccc32)sc(C)c1C
12.6µM* | COc1ccc(/C=N/NC2=NCCCCC2)cc1
-17.5% | CCOC(=O)COn1c(-c2cccc(Cl)c2)nc2ccc([N+](=O)[O-])cc21
-3.9% | O=C(NNC(=O)C(c1ccccc1)c1ccccc1)c1cccs1
-2.0% | O=C(CNc1ccccc1)NNC1=NCCC1
-11.9% | COCCOC(=O)C1=C(C)N(Cc2ccccc2)C(=O)NC1c1cccc(OC)c1OC (configuration not stated)
-7.4% | CCN(CC)CCCN1C=C2C(=O)C(C)(OC(=O)CCC(=O)OC)C(=O)C=C2C=C1C1CC1 (configuration not stated)
-10.0% | COC(=O)[C@H](Cc1ccccc1)NC(=O)[C@@H]1C[C@H]1[C@@H](NC(=O)OCc1ccccc1)c1ccccc1
-2.9% | CC(NC(=O)C12CC3CC(C1)CC(n1cncn1)(C3)C2)C12CC3CC(CC(C3)C1)C2 (configuration not stated)

More results follow:
HPGD inh | SMILES
? | COC(=O)c1cc(OC)c(OC)cc1NC(=O)c1c(-c2ccccc2)noc1C
2.1% | CC1(C)Cc2ccccc2C(c2cc3ccccc3oc2=O)=N1
-13.1% | CCOc1ccc(N=CC2=C(O)CC(c3ccco3)CC2=O)cc1 (configuration not stated)
-10.0% | Cc1cc(Nc2ccccc2)c2c([N+](=O)[O-])c(C)cc(C)c2n1
-2.3% | CCNc1nc(NC(C)C)nc(OCC)n1
-4.6% | Cc1ccc(/C=N/NC(=O)CSc2nc3ccccc3n2C)s1
-14.0% | OCCCn1c(-c2ccccc2)n[nH]c1=S
-5.6% | CN1C(=O)c2ccccc2C(C(=O)O)C1c1cn(C)c2ccccc12 (configuration not stated)
-5.6% | COc1ccc(-n2c(=O)c(-c3cccs3)nc3cnc(Nc4cccc(OC)c4)nc32)cc1
-15.0% | Cc1ccc(S(=O)(=O)N2CCN(C(=O)CSc3nc4ccccc4c(=O)[nH]3)CC2)c(C)c1

Entries shown so far that have an aryl thioether with sulfur outside any ring:
HPGD inh | SMILES
-20.9% | N#CCSc1nc2ccccc2c2nc3ccccc3n12
-11.4% | CCCCn1c(SCC(=O)O)nc2ccccc21
-9.2% | COc1ccc(NC(=O)CSc2n[nH]c(N)n2)c([N+](=O)[O-])c1
-4.6% | Cc1ccc(/C=N/NC(=O)CSc2nc3ccccc3n2C)s1
-15.0% | Cc1ccc(S(=O)(=O)N2CCN(C(=O)CSc3nc4ccccc4c(=O)[nH]3)CC2)c(C)c1

Following part.
HPGD inh | SMILES
-0.1% | CCC(=O)Nc1cc(-c2nnc(OC)c3ccccc23)ccc1N1CCOCC1
-2.2% | CC(C)(C)NC(=O)CSc1nnc(Cc2ccc3c(c2)OCO3)n1C1CCCCC1
-5.9% | O=C(O)CSC1=NCCN1
-9.7% | COc1ccccc1C(=O)NC1CCCCCCC1
-25.5% | CCCCSc1nc(SCC(=O)NCc2ccco2)c2c3c(sc2n1)COC(C)(CC)C3 (configuration not stated)
-13.0% | CC(C)(C)OC(=O)N1CC=C2C(C#N)=C(N)C(C#N)(C#N)[C@H](c3cccnc3)[C@H]2C1
-14.7% | CC(C)(C)NC(=O)C(=O)N/N=C/c1ccc(Br)cc1
-5.5% | Cc1ccc(Cn2nc(C)c(NC(=O)CCCn3nc(C)c([N+](=O)[O-])c3C)c2C)cc1
-25.2% | CC(Sc1nc(-c2ccccc2)cc(C(F)(F)F)n1)C(=O)N1CCOCC1 (configuration not stated)
-8.4% | COCCNC(=O)C(c1ccco1)N(C(=O)Cn1nnc2ccccc21)c1cc(C)ccc1C (configuration not stated)

(more compounds)
HPGD inh | SMILES
-26.1% | CCOc1ccc(C2C(C#N)=C(N)SC(N)=C2C#N)c(OCC)c1
2.6% | C=CCN1CCN(Cc2cnc(Cl)s2)CC1
1.2% | CS(=O)(=O)NN1C(=O)c2ccccc2NC1c1cccc2cccnc12 (configuration not stated)
-9.5% | O=C(C=C1SCCS1)/C=C/c1ccco1
-28.1% | CC(C)Cn1c(-c2ccco2)nc2c(c(=O)c3ccccc3n2C)c1=O
-10.0% | Cn1c(CS(=O)Cc2c(Cl)cccc2Cl)nnc1SCc1c(Cl)cccc1Cl (configuration not stated)
-10.6% | C/C=C/c1ccc(OCCCn2cncn2)c(OC)c1
-18.9% | Cc1cc(NC(=O)Nc2cccc(C(F)(F)F)c2)no1
-19.6% | O=C(Nc1cccc(C(F)(F)F)c1)C1CCCCC1
-11.5% | Cn1nnnc1SCC(=O)Nc1ccccc1[N+](=O)[O-]

Individual results from the list.
In HPGD inh, `Cc1cc(NC(=O)Nc2cccc(C(F)(F)F)c2)no1` is listed with -18.9%
In HPGD inh, `O=C(C=C1SCCS1)/C=C/c1ccco1` is listed with -9.5%

The list continues:
HPGD inh | SMILES
-2.5% | COC(=O)C1=C(C)NC(C)=C(C(=O)OC)C1C(=O)OCCN1C(=O)c2ccccc2C1=O
-19.3% | CC1=C(C(=O)OC2CCCC2)C(c2ccc(C)o2)C2=C(CC(c3cccs3)CC2=O)N1 (configuration not stated)
-5.5% | O=c1[nH]c(CO)nc2c1oc1ccccc12
-4.6% | CCNC(=O)NC(=O)C(C)Oc1ccc(C(=O)OC)cc1 (configuration not stated)
-7.4% | O=[N+]([O-])c1ccc(/C=C/c2nc3ccc([N+](=O)[O-])cc3[nH]2)cc1
-23.2% | COc1cc(/C=C/C(=O)Nc2ccccc2C(F)(F)F)cc(OC)c1OC
11.2µM* | CC1CC(C)CN(C(=O)/C(=C\c2ccccc2)c2ccccc2)C1 (configuration not stated)
-13.2% | CCOC(=O)/C(=C\C=C1/Sc2ccccc2N1CC)C(C)=O
-9.5% | COc1cccc(O[C@@H]2O[C@@H]3COC(C)(C)O[C@H]3[C@H](O)[C@H]2NC(C)=O)c1
-11.7% | COc1cc2c(cc1OC)C(C(=O)NCC1COc3ccccc3O1)C(c1cccnc1)N(C)C2=O (configuration not stated)
? | CC(/C=C1\SC(=O)N(CCCC(=O)O)C1=O)=C\c1ccccc1
-11.7% | CC(C)(Oc1ccc(Cl)cc1)C(=O)NC1=NN(c2ccccc2)C(=O)C1

Screens from PubChem BioAssay.

Some of the compounds tested. The share of hits here may be higher or lower than overall.
